2A StopGo = lowers the luciferase signal of an FMDV 2A StopGo reporter. human cells with a luciferase reporter of 2A StopGo recoding; control for the full effect not named in the record. Potency, µM (doses to about 57.9 µM), for inactives: at the highest dose signal change, negative = less light. AID 1159524. actives 1.2% (n = 410,000); active = well fitted falling curve with a large enough effect; inconclusive = small, poorly fitted or top-dose-only effect; inactive = no such curve, though single readings can be large or run the other way; tested in HEK293T cells; also: % is scaled to controls: 0 for no effect and ±100 for the full control effect; nearly all actives have a fitted effect of over 45% in size; luciferase light after 4 h
Marburg entry inh = Marburg virus entry inhibition. Potency, µM (titrated, usually from 37.8 µM), for inactives: at the top dose activity change, negative = inhibition, actives largely listed as inhibitors. actives 1.8% (n = 300,000). Marburg virus pseudotyped entry inhibition, cell reporter; control for the full effect not named in the record; about a third of the inactives were read at about 46 µM; active = well fitted inhibition curve with a large enough effect; inconclusive = small, poorly fitted or top-dose-only effect, or effect the other way; inactive = flat fitted curve, though single readings scatter; tested in HEK293 cells; about a fifth of its hits are not listed in these tables; also: % is scaled to controls: 0 for no effect and ±100 for the full control effect; luciferase read-out
Cruzain noTriton = blocks cruzain activity in detergent-free assay; Potency, µM, for the others: max response, negative = inhibition, actives largely listed as inhibitors; AID 1476; P25779; purified cruzain, Z-FR-AMC fluorescence, no detergent; actives 2.3% (n = 200,000);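 also: plate controls were enzyme without inhibitor for no effect and buffer without enzyme for full effect; nearly all actives have a fitted effect of over 40% in size; top concentration of the series not given in the record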
Target sequence (P25779 123-467 limits assumed): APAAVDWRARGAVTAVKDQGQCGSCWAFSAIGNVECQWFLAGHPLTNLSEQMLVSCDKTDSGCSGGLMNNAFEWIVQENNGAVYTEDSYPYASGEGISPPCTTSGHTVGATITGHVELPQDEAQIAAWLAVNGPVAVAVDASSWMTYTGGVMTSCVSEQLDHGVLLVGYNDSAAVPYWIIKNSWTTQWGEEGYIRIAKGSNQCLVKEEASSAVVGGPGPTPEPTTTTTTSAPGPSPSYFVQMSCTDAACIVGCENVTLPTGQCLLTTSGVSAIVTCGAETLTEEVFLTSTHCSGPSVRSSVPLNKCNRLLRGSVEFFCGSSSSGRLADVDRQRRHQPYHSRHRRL
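Detergent-free condition (0.00005% Triton X-100) in acetate buffer pH 5.5 with DTT. 1.5 nM enzyme and compound were pre-mixed 15 min, then 2 uM Z-FR-AMC substrate added; reaction progress from fluorescence change between first and third reads (60 s).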
Lassa entry inh = blocks Lassa virus binding to or entry into cells. Potency, µM (titrated, usually from 37.9 µM), inactives show at the highest dose activity change, negative = inhibition, actives largely listed as inhibitors. Lassa virus pseudotype entry inhibition, cell reporter; control for the full effect not named in the record. actives 1.2% (n = 300,000); active means well fitted inhibition curve with a large enough effect; inconclusive means small, poorly fitted or top-dose-only effect, or effect the other way; inactive means flat fitted curve, though single readings scatter; tested in HEK293 cells; also: % is scaled to controls: 0 for no effect and ±100 for the full control effect; nearly all actives have a fitted effect of over 50% in size; luciferase read-out
RE007 growth inh = less growth of the S. pombe RE007 Vpr strain; AID 651644; actives 0.21% (n = 360,000); Potency, µM (series often up to 92.2 µM), for the others: at the highest dose activity change, negative = less growth; S. pombe RE007 Vpr strain, BacTiter-Glo ATP luminescence, 24 h; control for the full effect not named in the record; active = well fitted falling curve with a large enough effect; inconclusive = small, poorly fitted or top-dose-only effect; inactive = no such curve, though single readings can be large or run the other way;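 also: % is scaled to controls: 0 for no effect and ±100 for the full control effect; nearly all actives have a fitted effect of over 50% in size; the assay follows cell death caused by Vpr and the record does not say whether a fall means rescue or toxicity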
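Fission yeast RE007 carrying one integrated HIV-1 vpr copy, seeded at OD 0.01 in PMG+AL medium with 23 nL pinned compound. Grown 24 h at 30 degrees; viability read by BacTiter-Glo luminescence after 5 min.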
NS1 function inh = blocks influenza NS1 protein function; S. cerevisiae slowed by influenza A NS1, growth recovery by OD600; Potency, µM (highest dose often 46.1 µM), inactives show at the top dose activity, positive = more growth; actives 0.4% (n = 270,000); AID 2326; active means well fitted rising curve with a large enough effect; inconclusive means small, poorly fitted or top-dose-only effect; inactive means no such curve, though single readings can be large or run the other way; also: nearly all actives have a fitted effect of over 50% in size
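Recovery from NS1-induced slow growth read by OD600 in budding yeast switched to galactose assay medium (pH 6.0, -URA) at 1:100 dilution. Compound 23 nl per well; the matching strain lacking NS1 serves as control.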
Cruzain inh Det = inhibitors of Trypanosoma cruzi cruzain with detergent; actives 0.43% (n = 200,000); purified cruzain, Z-FR-AMC fluorescence, 0.01% Triton; AID 1478; Potency, µM, inactives show max response, negative = inhibition, hits mostly inhibitors;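 also: plate controls were neutral wells for no effect and buffer without enzyme for full effect; nearly all actives have a fitted effect of over 40% in size; top concentration of the series not given in the record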
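Compounds were screened in titration against cruzain (1.5 nM) with 0.01% Triton X-100 to counter colloidal aggregation. Activity was the AMC fluorescence increase over 60 s after adding 2 uM Z-FR-AMC at pH 5.5.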
SARS PLpro yeast = SARS-CoV PLP inhibition in yeast. S. cerevisiae expressing SARS-CoV PLpro, growth rescue; control for the full effect not named in the record. Potency, µM (doses to about 32.9 µM), for the others: at the highest dose activity, positive = growth rescue. actives 0.19% (n = 330,000). AID 485353; active means well fitted rising curve with a large enough effect; inconclusive means small, poorly fitted or top-dose-only effect; inactive means no such curve, though single readings can be large or run the other way; also: 0% is about no effect; nearly all actives have a fitted effect of over 55% in size; growth read by luminescence after 48 h
Numbers without * were called inactive; ? = inconclusive; . = no result given; & = joins results of further samples; [ ] = remark or other dose. Unless noted, calls follow the shape of the dose curve; as a rule, active = well fitted curve in the direction sought with a large enough effect; inconclusive = small, poorly fitted or top-dose-only effect, or another doubt; inactive = no such curve, though single readings can be large; an effect the other way counts as inactive or inconclusive. Potency is read from the fitted curve at half-maximal effect.

structure,2A StopGo,Marburg entry inh,Cruzain noTriton,Lassa entry inh,RE007 growth inh,NS1 function inh,Cruzain inh Det,SARS PLpro yeast
COc1ccc(CC(=O)Nc2c3c(nn2-c2cccc(Cl)c2)CS(=O)C3)cc1 (stereo not given),-10%,10%[46.1 µM],18%,-19%,8%,-6%,3.4%,1%
CC(C(=O)Oc1ccc2c(c1)OCO2)N1C(=O)c2ccccc2C1=O (stereo not given),.,5%,4%,.,.,-50%,-5.9%,3%
Cc1cc(OC(=O)c2cccs2)c2c3c(c(=O)oc2c1)CCCC3,?,?,-13%,-17%,-15%,-23%,-5.1%,-20%
O=C(NCCc1ccc(F)cc1)C(=O)NCC1CCCN1S(=O)(=O)c1ccccc1 (stereo not given),40µM*,?,.,7.1µM*,2%,.,.,2%
O=C(c1ccc(OC2CCN(Cc3ccccn3)CC2)cc1)N1CCC[C@H]1CO,-8%,6%,.,-3%,-3%,3%,.,4%
COc1ccc(CN(C(=O)c2cnccn2)C(C(=O)Nc2ccc(F)cc2)c2ccccc2)cc1 (stereo not given),7%,-1%[46.1 µM],81%,-17%,7%,-4%,-6.5%,-3%
COc1ccccc1C(=O)OCC(=O)Nc1cccc(S(=O)(=O)NC2=NCCCCC2)c1,3%,6%,.,13%,6%,.,.,-3%
CCC1CN(C(=O)NCc2ccc(F)cc2)c2cc(Cl)ccc2O1 (stereo not given),-21%&-10%,?,-2%,-1%,-3%,-6%,-5.6%,-6%
COc1ccc(S(=O)(=O)N2CCCCC2)cc1NC(=O)c1ccc([N+](=O)[O-])o1,-18%,19%[46.1 µM],.,-9%[46.1 µM],4%,.,.,2%
CN(C)c1nc(N(C)C)nc(N(C#N)CN2C(=O)c3ccccc3S2(=O)=O)n1,?,11%,.,-4%,3%,11%,.,-3%
CCc1ccc(NC(=O)C2CCCN2c2nn3c(=O)cc(C)nc3s2)cc1 (stereo not given),0%,.,.,.,-20%,23%,.,0%
CCOc1ccc(NC(=O)NNC(=O)c2ccc(Cl)cc2Cl)cc1,-9%,.,.,.,13%,1%,.,0%
CCc1nnc(NS(=O)(=O)c2ccc(N/C=C/C(=O)c3ccc(OC)cc3)cc2)s1,27%,?,.,-15%[46.1 µM],12%,-2%,.,1%
C[C@]12CCC3C(CC[C@H]4C[C@@H](O)CC[C@]34C)C1C[C@@H](O)[C@@H]2O (stereo not given in full),-8%,12%[46.1 µM],.,11%[46.1 µM],9%,.,.,.
COc1ccc(C(=O)Nc2cc(OCc3ccccc3)c(Cl)cc2Cl)cc1,-15%,16%,-21%,-5%,17%,10%,2.6%,2%
CC1CCN(C(=O)CNC(=O)c2cccc(OC(F)F)c2)CC1,21%,19%,.,3%,0%,.,.,2%
O=C(COc1ccc2c(c1)oc(=O)c1ccccc12)NCCN1CCOCC1,9%,.,.,.,-7%,-21%,.,1%
O=S(=O)(c1ccccc1)c1nc(-c2ccccc2)oc1N1CCN(c2cccc(Cl)c2)CC1,-10%,4%[46.1 µM],-8%,8%[46.1 µM],.,.,-1.8%,.
CCCCN(C(=O)NC(=O)Nc1ccc(C)cn1)S(C)(=O)=O,-1%,-1%,3%,.,13%,0%,-10%,-2%
CCOC(=O)c1sc(NC(=O)CSc2nnnn2-c2ccc(C)cc2)c(C(=O)OCC)c1C,20%,-19%,-29%,14%,7%,-9%,1.4%,0%

A different layout for 2 compounds above:
Cc1cc(OC(=O)c2cccs2)c2c3c(c(=O)oc2c1)CCCC3
  2A StopGo: ?; Marburg entry inh: ?; Cruzain noTriton: -13%; Lassa entry inh: -17%; RE007 growth inh: -15%; NS1 function inh: -23%; Cruzain inh Det: -5.1%; SARS PLpro yeast: -20%

O=C(NCCc1ccc(F)cc1)C(=O)NCC1CCCN1S(=O)(=O)c1ccccc1 (stereo not given)
  2A StopGo: 40µM*; Marburg entry inh: ?; Cruzain noTriton: .; Lassa entry inh: 7.1µM*; RE007 growth inh: 2%; NS1 function inh: .; Cruzain inh Det: .; SARS PLpro yeast: 2%

Following part.
structure,2A StopGo,Marburg entry inh,Cruzain noTriton,Lassa entry inh,RE007 growth inh,NS1 function inh,Cruzain inh Det,SARS PLpro yeast
Cc1ccc2nc(NC(=O)Cc3cccs3)sc2c1,25%,?,-11%,-5%,15%,-5%,-4.7%,8%
O=c1cc2nc(-c3cccs3)nc(SCCOc3ccc(Cl)cc3)n2[nH]1,-22%,.,-3%,15%[46.1 µM],.,.,3.7%,.
Cn1c(C(=O)NCCN2CCN(c3ccccc3F)CC2)cc2c(=O)n(C)c3ccccc3c21,?,.,-10%,.,-7%,-127%,-3.9%,2%
CC(=O)Oc1ccccc1C1=NN(C(C)=O)C(c2ccccc2)C1 (stereo not given),-4%,.,.,.,14%,0%,.,1%
Cc1ccccc1OCC(=O)OCC(=O)Nc1ccc2c(c1)OCO2,-6%,-5%,.,0%,-14%,.,.,-7%
Cc1sc2nnn(CC(=O)N3CCN(C(=O)c4ccco4)CC3)c(=O)c2c1C,-13%,-1%,.,15%,17%,10%,.,.
O=C(CN1CCOCC1)Nc1ccc2c(c1)CCC2,12%,.,.,.,-13%,-33%,.,2%
CN(CCc1ccccn1)C(=O)CC1C(=O)NCCN1Cc1cccc(F)c1 (stereo not given),13%,.,.,.,-7%,0%,.,6%
COc1cccc(NC(=O)C2CCN(S(=O)(=O)c3ccc4c(c3)NC(=O)C(C)S4)CC2)c1 (stereo not given),?,?,.,0%[46.1 µM],-1%,11%,.,-10%
Cc1ccccc1C(=O)Nc1nc(=S)ss1,?,11%,-9%,4%,5%,-33%,-2.8%,1%
CCNC(=O)CC1C(=O)N(c2ccc(F)cc2)C(=O)N1Cc1ccc(C)cc1 (stereo not given),?,-4%[46.1 µM],-4%,-3%[46.1 µM],.,.,-0.6%,.
O=S(=O)(NC1CCCCC1Sc1ncccn1)c1ccc(Cl)cc1 (stereo not given),-5%,?,-30%,19%,12%,-10%,-0.9%,-4%
CCOC(=O)CCCNC(=O)CCNC(=O)c1ccc(OCCC(C)C)cc1,-3%,2%,.,?,-15%,3%,.,4%
CCOC(=O)c1ccc(NC(=O)CCn2nnc3ccccc32)cc1,22%,-26%,-3%,2%,2%,3%,-0.5%,28%
CC(=O)Nc1ccc(NC2=CC(=O)CC(C)(C)C2)cc1,-13%,8%[46.1 µM],-10%,2%,8%,7%,-3.2%,-1%
CCSc1cc(C)nc2c(-c3ccccc3)cnn12,48%[activator],.,.,.,-12%,-8%,.,-1%
Cc1ccnc(NC(=O)CCNC(=O)c2ccc(Cl)cc2)c1,0%,.,.,.,7%,-6%,.,0%
COc1cc(CNc2nnnn2C)ccc1OCc1c(F)cccc1Cl,43%[activator],?,.,3%[46.1 µM],-4%,-1%,.,1%
O=C(CCN1C(=O)c2ccccc2C1=O)Nc1ccc(S(=O)(=O)N2CCOCC2)cc1,-8%,?,-8%,1%,-7%,-18%,1.3%,8%
COc1cc(/C=N/NC(=O)CCc2ccccc2)ccc1O,-8%,?,-9%,2.8µM*,-14%,?,-5.6%,3%

structure,2A StopGo,Marburg entry inh,Cruzain noTriton,Lassa entry inh,RE007 growth inh,NS1 function inh,Cruzain inh Det,SARS PLpro yeast
COCCCn1c(=S)[nH]c(C)c(C)c1=O,-10%,12%[46.1 µM],.,2%,16%,6%,.,0%
O=C(Nc1ccccc1-c1ccccc1)c1ccccc1[N+](=O)[O-],3%,.,.,.,4%,-12%,.,-3%
O=C1CCCC/C1=C/NCc1ccc(F)cc1,17%,.,.,.,8%,-2%,.,1%
CCc1ccccc1NC(=O)C1CCN(C2=NS(=O)(=O)C(c3ccc(C)c(C)c3)=C2C)CC1,-23%,.,-11%,-3%[46.1 µM],.,.,-1.6%,.
O=C(c1ccco1)N1CCN(S(=O)(=O)c2cccc3nsnc23)CC1,-18%,3%[46.1 µM],-14%,11%,7%,0%,-0.9%,-2%
Oc1c(Cl)cc(Cl)cc1/C=N/c1nc(-c2ccc(Cl)cc2)cs1,34%[activator],.,.,.,-25%,8%,.,1%
Cc1ccccc1/C=C/c1cccc[n+]1C,-7%,.,.,.,-18%,3%,.,-4%
CCN(CC(=O)NC(C)(C)C)Cc1cc(=O)n2c(-c3ccccc3)csc2n1,-13%,2%[46.1 µM],.,-12%,-9%,10%,.,-17%
CC12CN(S(=O)(=O)c3ccccc3)CC(C)(CN(S(=O)(=O)c3ccccc3)C1)C2,0%,?,8%,2%,7%,-4%,5.5%,2%
Cc1ccc2c(=O)cc(C(F)F)oc2c1,-1%,15%[46.1 µM],-14%,-2%,8%,-3%,1.7%,13%
O=C(O)CCn1cc(C=C2C(=O)NC(=O)NC2=O)c(-c2ccc(Br)cc2)n1,-2%,?,1%,23%,3%,0%,-0.7%,-2%
Cc1c(Cl)cccc1NC(=O)CCC(=O)NNC(=O)c1ccccc1Cl,0%,-1%,5%,14%,-9%,2%,2.3%,0%
Cc1ccnc(NS(=O)(=O)c2ccc(N=Cc3c(O)n(C)c(=O)n(C)c3=O)cc2)n1,6%,6%[46.1 µM],.,15%,6%,-6%,.,-1%
O=S(=O)(NCC1CCCO1)c1cccc2nsnc12 (stereo not given),17%,7%,-3%,-15%,-11%,?,-0.8%,2%
Cc1cccc(N2C(=O)C3C4C=CC(CC4)C3C2=O)c1 (stereo not given),9%,.,.,.,14%,15%,.,-6%

Screening data from PubChem.
